KCNQ2 pot = enhances the rat KCNQ2 potassium channel | O88943 | CHO-K1 KCNQ2, FluxOR thallium flux fluorescence; active compounds read high | B-score at 10 µM | hit rate 0.54% among 310,000 | AID 2239;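 active = fluorescence ratio B-score at least 3 SD of library B-scores, with initial fluorescence B-score within 3 SD, cut at about 5.3 in these data; same plate scores as AID 2156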;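 note: B-score of peak minus minimum over baseline fluorescence ratio after K+ and Tl+ stimulus; positive B-score means potentiation of KCNQ2 with more thallium influx and brighter signal; only the inactives scoring about 0 or higher are listed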
Target sequence (O88943 whole entry, looked up): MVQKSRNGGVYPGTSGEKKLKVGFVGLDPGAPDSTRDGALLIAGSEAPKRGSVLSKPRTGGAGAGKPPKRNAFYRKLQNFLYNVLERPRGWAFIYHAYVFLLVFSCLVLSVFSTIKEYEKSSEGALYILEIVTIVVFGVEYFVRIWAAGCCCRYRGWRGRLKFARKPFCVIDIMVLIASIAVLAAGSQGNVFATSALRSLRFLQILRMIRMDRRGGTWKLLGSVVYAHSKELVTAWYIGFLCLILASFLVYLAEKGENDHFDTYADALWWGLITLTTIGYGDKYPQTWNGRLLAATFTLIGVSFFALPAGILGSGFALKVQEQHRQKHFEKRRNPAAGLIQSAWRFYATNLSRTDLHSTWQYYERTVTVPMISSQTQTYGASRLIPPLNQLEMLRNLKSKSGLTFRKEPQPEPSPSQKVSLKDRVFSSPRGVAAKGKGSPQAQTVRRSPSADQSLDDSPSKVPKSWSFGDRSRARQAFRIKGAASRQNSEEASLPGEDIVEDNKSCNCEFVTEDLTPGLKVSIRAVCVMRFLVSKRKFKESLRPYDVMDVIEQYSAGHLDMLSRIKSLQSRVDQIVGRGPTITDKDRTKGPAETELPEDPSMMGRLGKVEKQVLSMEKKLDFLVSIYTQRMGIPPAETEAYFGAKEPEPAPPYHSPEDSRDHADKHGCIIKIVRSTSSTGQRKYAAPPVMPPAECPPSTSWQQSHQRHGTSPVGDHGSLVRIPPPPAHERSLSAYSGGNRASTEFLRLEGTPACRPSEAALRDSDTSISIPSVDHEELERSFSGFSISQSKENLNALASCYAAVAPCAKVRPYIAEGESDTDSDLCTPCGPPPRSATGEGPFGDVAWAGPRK
KCNQ2 pot baseline = recorded beside KCNQ2 pot, whose call it bears; B-score; compound at 10 µM; measured here: initial fluorescence intensity artifact check;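 brightness before thallium and not channel activity; 0 = typical well and far values either way flag optical interference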
Active calls of the source: *. A portion of the library. The share of hits here may be higher or lower than overall.

Values in the order: KCNQ2 pot, KCNQ2 pot baseline
- CCOC(=O)c1ccc(NC(=O)CSc2nnc(Cc3cccs3)n2C)cc1
    0.54, -0.79
- CCCOc1ccc(CN(CCO)CCO)cc1[N+](=O)[O-]
    0.46, -0.43
- COc1ccc(OC)c(CCNC(=O)CCCC(=O)n2ncc3cc(C)ccc32)c1
    1.2, 0.87
- Nc1nnc2c(n1)CCCC2
    0.69, -2.2
- CCc1ccc(OCC(=O)NC(=S)Nc2cccc(CO)c2)c(Br)c1
    0.48, -2.2
- O=C(Nc1cccc(S(=O)(=O)NC2=NCCC2)c1)c1ccccc1OC(F)F
    0.52, -0.01
- COCCN1Cc2cccc(C(=O)Nc3ccc4c(c3)OCCO4)c2C1=O
    0.5, 0.76
- Cc1cccc(NC(=O)CSc2nc3ccc(N4C(=O)c5ccccc5C4=O)cc3s2)c1C
    0.84, -0.86
- CCOC(=O)c1cn(-c2ccc(F)c(F)c2)c2c(F)c(F)c(F)c(F)c2c1=O
    0.39, 1.4
- COc1ccc(Cl)cc1NC(=O)CN(C)C(=O)c1ccc(OCc2ccccc2)c(OC)c1
    0.03, 1.7
- CCOC(=O)c1sc(NC(=O)C2CC=CCC2C(=O)O)nc1C (configuration not stated)
    0.6, -2.8
- O=C(NC1CC1)C1CCN(C2CCN(C(=O)/C=C/c3ccc(F)cc3)CC2)CC1
    1.1, -1.4
- NC(=S)Cc1nc(-c2ccc(Cl)cc2)cs1
    0.95, -2.7
- Cc1nn(-c2ccccc2)c(Cl)c1/C=N/NC(=O)c1ccco1
    0.48, -0.07
- O=C(N/N=C/c1cccnc1)c1ccc(NC(=O)c2ccc(F)cc2)cc1
    0.04, 0.06
- O=C(Nc1nc(-c2cc3ccccc3oc2=O)cs1)c1ccc(Br)o1
    0.49, 0.49
- C=CCNC(=S)N/N=C/c1ccc(OCc2ccccc2Cl)cc1
    0.1, -2.5
- O=C(NC1CCCC1)C(c1cccnc1)N(Cc1ccccc1F)C(=O)c1csnn1 (configuration not stated)
    0.12, 0.49
- Cc1cccc(NC(=O)c2cnn(C)c2)c1C
    0.05, -0.05
- COc1ccc(CSC2=NCCN2)cc1Cl
    0.4, -0.01
- O=C(c1cccnc1)N1N=C2CCCCCC2C1(O)C(F)(F)F (configuration not stated)
    0.32, -0.05
- Cc1nn(Cc2cccc(C(=O)N3CCCC(C)C3)c2)c(C)c1[N+](=O)[O-] (configuration not stated)
    0.05, -0.32
- COc1ccc(/C=C(\NC(=O)c2ccccc2)C(=O)NCc2ccco2)cc1
    0.39, 0.84
- CCc1cc2c(=O)[nH]c(N3CCOCC3)nc2s1
    0.35, 0.87
- O=C(Nc1nccc(-c2cccs2)n1)c1ccccc1Cl
    0.48, 1.3
- CCC(C)N(C(=O)Cn1nnc(-c2ccc(Cl)cc2)n1)C1CCS(=O)(=O)C1 (configuration not stated)
    2.1, 0.13
- CC(C)(CCl)C(=O)Nc1ccc(C(F)(F)F)cc1
    0.7, 1.5
- O=C(CNC(=S)N(Cc1ccc(F)cc1)C1CCCCC1)NC1CC1
    0.35, -0.41
- COc1ccc(N2CCN(C(CNC(=O)CC(C)(C)C)c3ccc4c(c3)OCO4)CC2)cc1 (configuration not stated)
    1.3, 0.18
- Cc1cc(C)cc(C(=O)N2CC(=O)Nc3ccccc32)c1
    0.16, -0.5
- Cc1cccc(C)c1N(C(=O)c1ccco1)C(C(=O)NC1CCCC1)c1ccncc1 (configuration not stated)
    0.72, -1.2
- Fc1ccc(NC(=S)NCc2ccc3c(c2)OCO3)cc1
    1.4, 0.29
- COC(=O)c1c(-c2ccco2)csc1NC(=O)C1CC=CCC1C(=O)O (configuration not stated)
    0.29, 0
- COC(=O)CNC(=O)c1ccccc1
    0.08, -0.2
- COc1ccc(Br)cc1S(=O)(=O)NCCN1CCOCC1
    0.56, -0.02
- Cc1ccc(C)c(OCC(=O)Nc2nonc2NC(=O)COc2cc(C)ccc2C)c1
    0.03, 0.76
- CSc1nnc(C)c(=O)n1COC(=O)COc1ccc(Cl)cc1
    0.01, 2.3
- Nc1cccc(CCc2ccncc2)c1
    0.02, 0.44
- O=C(c1ccccc1)c1c[nH]c(C(=O)NCCCN2CCOCC2)c1
    0.56, -0.53
- O=C1NC2=C(C(=O)CCC2)C(c2ccc3ncccc3c2)N1 (configuration not stated)
    0.65, -0.28
- CCCC(=O)Nc1cccc(-c2nc3cc(C)c(C)cc3o2)c1
    0.19, -1.1
- Cc1ccc(SCCn2nc(C(=O)O)c3ccccc3c2=O)cc1
    0.53, -0.21
- CCC1(c2ccc(F)cc2)NC(=O)N(CC(=O)N2CCc3ccccc3C2)C1=O (configuration not stated)
    0.15, 0.08
- O=C(CNC(=O)c1ccc(Br)o1)NCc1ccccc1
    0.05, -0.23
- COc1ccc(COC(=O)CCS(=O)(=O)c2ccc(C)cc2)cc1
    1, 0.06
- CCOc1ccc(NC(=O)CSc2nc3ccccc3c(=O)n2CCCC(=O)NCCCN2CCCC2=O)cc1
    0.02, 3.4
- C/C(=N\NC(=O)c1ccc(-c2ccccc2)cc1)C1C(=O)c2ccccc2C1=O
    0.5, -2.1
- C/C(=N\NC(=S)NCCc1ccccc1)c1ccc(Cl)cc1Cl
    6.2*, -0.55*
- COc1ccc(-c2cc(C(=O)Nc3ccc4c(c3)OCO4)no2)cc1OC
    0.25, 0
- CCOC(=O)C1C2C=CC3(CN(c4ccc(Cl)c(F)c4)C(=O)C13)O2 (configuration not stated)
    1.4, -0.04
- Cc1ccc(C(=O)OCC(=O)NC(C)C)cc1S(=O)(=O)N1CCOCC1
    0.1, 0.92
- COCCC1CCCCN1C(=O)c1cc(COc2cccc(C(C)=O)c2)on1 (configuration not stated)
    0.83, 1.1
- CCC(CC)C(=O)NCCc1cc2c(OC)ccc(OC)c2[nH]c1=O
    0.74, -1.2
- CCCCc1nc2sc3c(SCC(=O)NCc4ccco4)ncnc3c2c2c1CCC2
    0.68, 0.69
- C/C(=N\NC(=O)c1ccncc1)c1cccc(NC(=O)c2ccc(Cl)s2)c1
    1.3, 2.9
- O=C(N/N=C/c1cc2ccccc2[nH]1)c1ccccc1Cl
    0.04, -2.1
- Cc1ccccc1Nc1nc(N)nc(CSc2nnnn2-c2ccccc2)n1
    1, -1.9
- COc1ccc(NC(=O)CO/N=C2/CCCc3nonc32)c(OC)c1
    0.56, 0.7
- COc1cc(/C=C2\SC(=Nc3ccc(N4CCOCC4)cc3)N(C)C2=O)ccc1OC(C)C(=O)O (configuration not stated)
    0.84, -2.2
- COCCCNC(=O)c1ccc2c(=O)n(Cc3ccc(OC)cc3)c(=O)[nH]c2c1
    1.2, 0.56

Going on with the list.
Values in the order: KCNQ2 pot, KCNQ2 pot baseline
- CCN(C(=O)Cn1c(=O)oc2ccccc21)c1cccc(C)c1
    0.61, 0.46
- CNc1ccccc1C(=O)OC(C)C(=O)Nc1ccc(Cl)cn1 (configuration not stated)
    0.65, -2.3
- CCOC(=O)N1CCN(C(=O)C2CCN(S(=O)(=O)c3cc(Cl)ccc3OCC)CC2)CC1
    0.36, 1.3
- COc1ccccc1C(=O)NC(=O)COC(=O)CNC(=O)c1ccc(Cl)c([N+](=O)[O-])c1
    0.07, 1.5
- Cc1ccc(NC(=O)CSc2ccc(-c3cccnc3)nn2)c(C)c1
    1.3, 0.06
- O=C(N=Nc1c(O)[nH]c2ccccc12)c1cc(NS(=O)(=O)c2cccs2)cc(NS(=O)(=O)c2cccs2)c1
    1.2, 1
- COCCNC(=O)c1ccc2c3n(nc2c1)-c1ccc(Cl)cc1CO3
    0.63, -0.41
- CN(C)S(=O)(=O)c1ccc2nnn(O)c2c1
    0.66, -0.19
- O=S(=O)(Nc1ccc(N2CCOCC2)cc1)c1c(F)cc(F)cc1Br
    2.7, 0.16
- CCc1ccccc1NC(=O)C1CCCN(c2ncccn2)C1 (configuration not stated)
    0.7, 1.7
- CCOc1ccc(NC(=O)C(=O)NCCCn2ccnc2)cc1
    0.12, -0.63
- COc1ccc(OCC(=O)Nc2ccc(NC(=O)c3ccccc3Cl)c(OC)c2)cc1
    0.45, -0.04
- CCOC(=O)N1CCN(c2ncnc3c2[nH]c2ccc(F)cc23)CC1
    0.09, -0.92
- COc1cc(O)c(C(CCN2CCCC2)c2cc(OC)c(OC)c(OC)c2)c(OC)c1 (configuration not stated)
    2.5, -1
- COc1cc(C(C)=O)ccc1OCCCOc1cccc2cccnc12
    0.87, -0.56
- O=C(NCCC1=CCCCC1)C1CCN(S(=O)(=O)N2CCCC2)CC1
    0.84, -0.68
- O=c1cc(-c2ccc(O)cc2)oc2c(C3OCC(O)C(O)C3O)c(O)c(C3OC(CO)C(O)C(O)C3O)c(O)c12 (configuration not stated)
    0.4, -0.75
- CCOC(=O)N1CCN(C(=O)CSc2nc(=O)n3ccccc3n2)CC1
    0.11, 0.77
- CCOc1ccc(/C(=N\O)C(C)NO)cc1 (configuration not stated)
    0.72, -1
- Cc1cc(NC(=O)CCC(=O)N(c2ccc(F)cc2)C(C(=O)NC2CCCC2)c2cccnc2)no1 (configuration not stated)
    1.6, 1.1
- COc1ccccc1/C=N/NC(=O)c1cccc2ccccc12
    1.6, -0.01
- NC(=O)C1CCCN1S(=O)(=O)c1ccc2ccccc2c1 (configuration not stated)
    0.79, -0.16
- CCC1(c2ccc(F)cc2)NC(=O)N(CC(=O)NCc2ccc(C)cc2)C1=O (configuration not stated)
    0.35, 1
- C=CCn1c(Cc2c[nH]c3ccccc23)nnc1SCC(=O)NCc1ccccc1
    0.59, -0.48
- COC(C[C@@H](O)C[C@@H](O)COCc1ccccc1)OC
    1.5, 0.47
- CCOC(=O)C1=C(C)Nc2nc3ccccc3n2C1c1ccc(O)cc1 (configuration not stated)
    1, -0.02
- COCC(=O)NC(c1ccccc1)c1ccccc1
    8*, 0.61*
- Cc1nc2c(C(=O)NCc3ccccc3)c[nH]n2c(=O)c1Cl
    0.07, 2.2
- C/C(=N\NS(=O)(=O)c1ccc([N+](=O)[O-])cc1)c1cccs1
    0.68, 0.59
- Cc1cccc(C(=O)NCC(=O)NC2CCN(Cc3ccccc3)CC2)c1
    2.1, -0.69

4 entries from above, sorted by SMILES length, low to high:
Values in the order: KCNQ2 pot, KCNQ2 pot baseline
- COc1ccccc1/C=N/NC(=O)c1cccc2ccccc12
    1.6, -0.01
- O=C(c1cccnc1)N1N=C2CCCCCC2C1(O)C(F)(F)F (configuration not stated)
    0.32, -0.05
- O=C(NC1CC1)C1CCN(C2CCN(C(=O)/C=C/c3ccc(F)cc3)CC2)CC1
    1.1, -1.4
- CCOc1ccc(NC(=O)CSc2nc3ccccc3c(=O)n2CCCC(=O)NCCCN2CCCC2=O)cc1
    0.02, 3.4

New compounds follow:
Values in the order: KCNQ2 pot, KCNQ2 pot baseline
- CCOc1ccc(NS(=O)(=O)c2ccc3[nH]cc(C(=O)NCC4CCCO4)c(=O)c3c2)cc1 (configuration not stated)
    0.08, 0.22
- CC(=O)c1c(C)[nH]c(C(=O)N2c3ccccc3CC2C)c1C (configuration not stated)
    1.5, 0.02
- COc1ccc(OCC2NCCc3cc(OC)c(OC)cc32)cc1 (configuration not stated)
    0.95, 0.04
- OCCC1CN(Cc2ccc(Oc3ncccn3)cc2)CCN1CCc1ccccc1 (configuration not stated)
    0.9, 0.05
- COc1ccc(C2(O)CCN(Cc3nnnn3Cc3ccc(C)cc3)CC2)cc1
    0.2, 0.28
- CC(C(=O)N1CCCCC1)N1C(=O)c2ccccc2C1=O (configuration not stated)
    1, 0.41
- COc1ccc(C(=O)NC(=S)N2CCCC2)cc1
    0.89, 1.1
- Cc1ccc(OCc2nnc(NC(=O)OCC(C)C)s2)cc1
    1.1, -1.4
- C/C(=N\Nc1nc(-c2cc(C)ccc2C)cs1)c1cc2c(ccc3ccccc32)oc1=O
    1.6, -0.53
- COc1ccc(-c2[nH]ncc2CN2CCC(O)(c3ccc(Cl)cc3)CC2)cc1
    1.3, 0.09
- CCOC(=O)c1c(C)[nH]c(C)c1C(=O)COC(=O)c1cc2ccccc2cc1OC
    0.21, -1.4
- CCc1nnc(SCC(=O)NC2CCCC2)nc1CC
    0.21, -2
- NC(=O)COc1cccc(/C=N/NC(=O)c2ccc(-n3cccc3)cc2)c1
    1.2, -0.02
- CC1CN(CC(O)COCc2ccc3c(c2)OCO3)CC(C)O1 (configuration not stated)
    0.16, -0.34
- CCC(C)NC(=O)c1cc(Cl)c(NC(=O)C2=C(C)OCCS2)cc1OC (configuration not stated)
    0.69, -0.29
- CCN(CC1CCCN(CCc2cccc(OC)c2)C1)C(=O)c1ccc(COC)o1 (configuration not stated)
    0.46, -3.6
- COc1ccc(NC(=O)CCNS(=O)(=O)c2ccc3c(c2)c(=O)n(C)c(=O)n3C)cc1
    0.75, 3.3
- O=C(COC(=O)c1ccc(O)cc1O)NCCN1C(=O)CSC1=O
    0.49, 0.46
- Cc1c(-c2ccccc2)oc2c(C(=O)OCC(=O)Nc3ccc(F)cc3)cccc2c1=O
    4, -0.79
- COc1ccc(CN2CC(C(=O)NCCCN3CCCC(C)C3)CC2=O)cc1 (configuration not stated)
    0.94, 0.88
- CCSc1nc(N)c(C#N)c(-c2ccccc2Cl)c1C#N
    0.48, 0.38
- CCS(=O)(=O)N1CCN(C(=O)c2ccccc2)CC1
    1.3, 0.82
- COc1ccc(-c2cc(=O)c3cc(O)ccc3o2)cc1
    1.2, 0.53

Whole records, looked up by structure:
COc1ccc(OC)c(CCNC(=O)CCCC(=O)n2ncc3cc(C)ccc32)c1 in the list: KCNQ2 pot: 1.2; KCNQ2 pot baseline: 0.87
Cc1ccccc1Nc1nc(N)nc(CSc2nnnn2-c2ccccc2)n1 in the list: KCNQ2 pot: 1; KCNQ2 pot baseline: -1.9
